# ALR H2O2 inh: inhibitors of human sulfhydryl oxidase ALR; P55789; purified ALR, DTT oxidation, H2O2 HRP-luminol luminescence; inhibition, % (no concentration beside the values); 290,000 compounds, 3.8% hits; AID 485317;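 active means mean and each replicate at 75% or more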;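 further: stock transfer was 7.5 nL into about 7.5 µL; 0% = neutral wells and 100% = wells with inactivated enzyme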
# Target sequence (P55789 whole entry, looked up): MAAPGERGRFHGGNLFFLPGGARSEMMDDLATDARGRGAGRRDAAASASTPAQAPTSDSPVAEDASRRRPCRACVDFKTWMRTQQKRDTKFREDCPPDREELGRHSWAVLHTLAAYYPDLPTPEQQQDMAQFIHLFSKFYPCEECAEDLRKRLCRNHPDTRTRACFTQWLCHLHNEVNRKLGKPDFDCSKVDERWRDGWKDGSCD
# The depositor's hits bear a star.
# Start of the listing, in advance:
entry	canonical_smiles	ALR H2O2 inh
1	CN1C(=O)NC(c2ccccc2)C2=C1CN(Cc1ccccc1)C2=O (stereo unspecified)	-12.7
2	O=C(N/N=C/c1nn(-c2ccccc2)cc1-c1ccc(Cl)cc1)c1ccncc1	-19.5
3	Cc1c(NC(=O)c2c(N)n(-c3ccccc3)c3nc4ccccc4nc23)c(=O)n(-c2ccccc2)n1C	-12.8
4	c1ccc(COCCC2CO2)cc1 (stereo unspecified)	6.9
5	C#CCOCCOCCOCCNc1nc(N2CCN(C(=O)CCCCCCCCCCNC(=O)[C@H](CO)n3cc(CCCSC)nn3)CC2)nc(N2CCN(C(=O)CCCCCCCCCCNC(=O)[C@H](CCCCN)n3cc(C[C@@H](C)CC)nn3)CC2)n1	-6.1
6	O=c1ncc(F)c[nH]1	-4.8
7	COC(=O)C1=C(C)N(Cc2ccco2)C(=O)N[C@H]1c1ccccc1	0.9
8	O=C1N[C@@H](Cc2ccccc2)C(=O)N2[C@H]3Nc4ccccc4[C@@]3([C@]34C[C@H]5C(=O)N[C@@H](Cc6ccccc6)C(=O)N5[C@H]3Nc3ccccc34)C[C@@H]12	24.6
9	CC(=O)OC1=C(O)C(=O)c2ccccc2C1=O	-12.3
10	O=C1c2ccccc2C(=O)C1(O)O	-46.4
11	NC(=O)c1ccc(N=Nc2c(O)c3ccccc3[nH]c2=O)cc1	-6.3
12	C/C(CC(=O)Nc1ccccn1)=N\NC(=O)c1ccncc1	6.2
13	CCCCC/C=C\C/C=C\C/C=C\C/C=C\CCCC(=O)O	97.2*
14	CC12OC1C1(O)CCCC1=CC2=O (stereo unspecified)	0.2
15	CC(C)[C@@]1(c2ccccc2)ON(c2ccccc2C(F)(F)F)C1=O	-3.8
16	NS(=O)(=O)c1ccc(-c2ccc(/C=C3\C(=O)Nc4ccccc43)o2)cc1	5.7
17	C=CCOc1ccccc1/C=c1\sc2nc(-c3oc4ccccc4c3C)nn2c1=O	-3.9
18	COc1cc(S(=O)(=O)Nc2ccccc2)ccc1N=Cc1c(C)[nH]n(-c2ccc(C)cc2)c1=O	-0.3
19	C[C@H]1[C@@H](OC(=O)CCC(=O)O)O[C@@H]2OC3(C)CC[C@H]4[C@H](C)CC[C@@H]1[C@@]24OO3	-12.1
20	O=C(/C=C/c1ccc(Cl)cc1)NC(=S)NN1CCCCC1c1cccnc1 (stereo unspecified)	-0.7
21	CCC/C=C(\CCC)C(NC(=O)c1ccc(C(F)(F)F)cc1)c1ccccc1 (stereo unspecified)	-4.8
22	Cc1cc(C(=O)N/N=C/c2cc(Br)cc(Br)c2OC(=O)c2ccccc2)n[nH]1	-3.2
23	C#CCOCCOCCOCCNc1nc(N2CCN(C(=O)C([C@@H](C)CC)n3cc(C(N)COC(=O)C(F)(F)F)nn3)CC2)nc(N2CCN(C(=O)[C@H](CCCCN)n3cc(C(N)[C@H](C)CC)nn3)CC2)n1 (stereo partly specified)	-7.1

# This part in full (from the top)
entry	canonical_smiles	ALR H2O2 inh
1	CN1C(=O)NC(c2ccccc2)C2=C1CN(Cc1ccccc1)C2=O (stereo unspecified)	-12.7
2	O=C(N/N=C/c1nn(-c2ccccc2)cc1-c1ccc(Cl)cc1)c1ccncc1	-19.5
3	Cc1c(NC(=O)c2c(N)n(-c3ccccc3)c3nc4ccccc4nc23)c(=O)n(-c2ccccc2)n1C	-12.8
4	c1ccc(COCCC2CO2)cc1 (stereo unspecified)	6.9
5	C#CCOCCOCCOCCNc1nc(N2CCN(C(=O)CCCCCCCCCCNC(=O)[C@H](CO)n3cc(CCCSC)nn3)CC2)nc(N2CCN(C(=O)CCCCCCCCCCNC(=O)[C@H](CCCCN)n3cc(C[C@@H](C)CC)nn3)CC2)n1	-6.1
6	O=c1ncc(F)c[nH]1	-4.8
7	COC(=O)C1=C(C)N(Cc2ccco2)C(=O)N[C@H]1c1ccccc1	0.9
8	O=C1N[C@@H](Cc2ccccc2)C(=O)N2[C@H]3Nc4ccccc4[C@@]3([C@]34C[C@H]5C(=O)N[C@@H](Cc6ccccc6)C(=O)N5[C@H]3Nc3ccccc34)C[C@@H]12	24.6
9	CC(=O)OC1=C(O)C(=O)c2ccccc2C1=O	-12.3
10	O=C1c2ccccc2C(=O)C1(O)O	-46.4
11	NC(=O)c1ccc(N=Nc2c(O)c3ccccc3[nH]c2=O)cc1	-6.3
12	C/C(CC(=O)Nc1ccccn1)=N\NC(=O)c1ccncc1	6.2
13	CCCCC/C=C\C/C=C\C/C=C\C/C=C\CCCC(=O)O	97.2*
14	CC12OC1C1(O)CCCC1=CC2=O (stereo unspecified)	0.2
15	CC(C)[C@@]1(c2ccccc2)ON(c2ccccc2C(F)(F)F)C1=O	-3.8

# The results go on:
entry	canonical_smiles	ALR H2O2 inh
16	NS(=O)(=O)c1ccc(-c2ccc(/C=C3\C(=O)Nc4ccccc43)o2)cc1	5.7
17	C=CCOc1ccccc1/C=c1\sc2nc(-c3oc4ccccc4c3C)nn2c1=O	-3.9
18	COc1cc(S(=O)(=O)Nc2ccccc2)ccc1N=Cc1c(C)[nH]n(-c2ccc(C)cc2)c1=O	-0.3
19	C[C@H]1[C@@H](OC(=O)CCC(=O)O)O[C@@H]2OC3(C)CC[C@H]4[C@H](C)CC[C@@H]1[C@@]24OO3	-12.1
20	O=C(/C=C/c1ccc(Cl)cc1)NC(=S)NN1CCCCC1c1cccnc1 (stereo unspecified)	-0.7
21	CCC/C=C(\CCC)C(NC(=O)c1ccc(C(F)(F)F)cc1)c1ccccc1 (stereo unspecified)	-4.8
22	Cc1cc(C(=O)N/N=C/c2cc(Br)cc(Br)c2OC(=O)c2ccccc2)n[nH]1	-3.2
23	C#CCOCCOCCOCCNc1nc(N2CCN(C(=O)C([C@@H](C)CC)n3cc(C(N)COC(=O)C(F)(F)F)nn3)CC2)nc(N2CCN(C(=O)[C@H](CCCCN)n3cc(C(N)[C@H](C)CC)nn3)CC2)n1 (stereo partly specified)	-7.1
24	COC(=O)CCC(=O)OC1(C)C(=O)C=C2C=C(C3CC3)N(c3ccc(CO)cc3)C=C2C1=O (stereo unspecified)	-20.4
25	Cn1nnnc1Sc1ncnc2scc(-c3cccs3)c12	30.1
26	Cc1ccc(/C=C/C(=O)Oc2ccc(C#N)cc2)o1	35.6
27	CNC(C)C#Cc1ccc2sc3cc(OC)c(OC)cc3c(=O)c2c1 (stereo unspecified)	-24.4
28	Cc1ccc2c(c1)N/C(=C(\C=C(/Cl)[N+](=O)[O-])[N+](=O)[O-])N2	4.6
29	COc1ccc(OCc2cc(C(=O)O)c(C)o2)cc1	-0.3
30	COc1cccc2cc(-c3ccnc(=S)[nH]3)oc12	99.0*

# Remaining list, next part.
entry	canonical_smiles	ALR H2O2 inh
31	C=CCn1c(=N)c(C(=O)OCC)cc2c(=O)n3cccc(C)c3nc21	0.9
32	Cc1ccn2c(C(=O)N/N=C/c3ccc(CNC(=O)C(=O)Nc4ccc(C)c(C)c4)o3)c(C)nc2c1	-0.3
33	CC(=O)OCC(=O)[C@@]12OC(C)(C)O[C@@H]1C[C@H]1[C@@H]3C[C@H](F)C4=CC(=O)C=C[C@]4(C)[C@@]3(F)[C@@H](O)C[C@@]12C	-3.3
34	C#CCOCCOCCOCCNc1nc(N2CCN(C(=O)[C@H](CCCCN)n3cc([C@@H](N)C(C)CC)nn3)CC2)nc(N2CCN(C(=O)[C@H](CCCCN)n3cc([C@@H](N)CO)nn3)CC2)n1 (stereo partly specified)	-11.5
35	COc1ccc(OC)c2sc(N(CCCN(C)C)C(=O)c3ccc(S(=O)(=O)N4CCc5ccccc5C4)cc3)nc12	-3.6
36	Cc1ccc2nsnc2c1NC(=O)c1cccc([N+](=O)[O-])c1	-1.8
37	COC/C=C/C1=CC2=CC(=O)C(C)(OC(=O)c3cnc4ccccc4n3)C(=O)C2=CN1c1ccc(CO)cc1 (stereo unspecified)	-1.7
38	C#CCOCCOCCOCCNc1nc(N2CCN(C(=O)CCCCCCCCCCNC(=O)[C@H]([C@@H](C)CC)n3cc(CCCCCN)nn3)CC2)nc(N2CCN(C(=O)CCCCCCCCCCNC(=O)[C@@H]([C@H](C)CC)n3cc(CCCCCN)nn3)CC2)n1	8.3
39	CC(C)Cc1ccccc1O	-2.5
40	O=C1C=C(O)c2c(O)cccc2C1=O	-20.9
41	Cc1ccc2c(c1)c1c(n2CC(O)CN2CCOCC2)CCCC1 (stereo unspecified)	9.0
42	CC1(C)O[C@@H]2[C@H](O1)[C@@H](COS(=O)(=O)O)O[C@H]2n1cnc2c(N)ncnc21	-1.3
43	CCc1ccc(-c2cc(-c3n[nH]c(=S)n3CC)c3ccccc3n2)cc1	-0.3
44	O=C1N[C@@H](Cc2cn(S(=O)(=O)c3c(F)c(F)c(F)c(F)c3F)c3ccccc23)C(=O)N[C@H]1Cc1ccccc1	-1.3
45	COC(=O)C1=C(C(=O)OC)[C@@H]2N(C)c3ccc(OC)cc3[C@@]23C[C@@H](C(=O)OC)N(C(=O)C2CCC2)C3=N1	9.6

# (next part)
entry	canonical_smiles	ALR H2O2 inh
46	COc1ccc(CCNC(=O)c2ccc3c(c2)NC(=O)C(CSCc2cc(C)ccc2C)N3)cc1OC (stereo unspecified)	98.8*
47	CC(C)[C@@]1(c2ccc(Cl)cc2)ON(c2ccccc2C(F)(F)F)C1=O	-12.4
48	C[C@@H]1C[C@@H]2OC(=O)[C@]3(C)[C@H]2[C@@H](OC3(C)O)[C@]2(C)C(=O)CC[C@H]12 (stereo partly specified)	15.6
49	O=C1N[C@H](Cc2ccccc2)C(=O)N[C@H]1Cc1cn(S(=O)(=O)c2ccccc2)c2ccccc12	-2.6
50	COc1ccc(Nc2sc(C(=O)Nc3cccc(Cl)c3)c(N)c2C(=O)Nc2ccccc2OC)cc1	-3.2
51	COC/C=C/C1=CC2=CC(=O)C(C)(O)C(=O)C2=CO1 (stereo unspecified)	2.9
52	COc1ccnc(CS(=O)c2nc3cc(OC(F)F)ccc3[nH]2)c1OC (stereo unspecified)	-9.7
53	C[C@@H]1CCCCCCCCC(=O)OCCN(C(=O)OC(C)(C)C)[C@H](C)CCCCCCCCC(=O)OCCN(C(=O)OC(C)(C)C)[C@H](C)CCCCCCCCC(=O)OCCN1C(=O)OC(C)(C)C	-1.5
54	C/C=C\C=C\C(=O)Nc1cccc(C2=NOC3(C2)C[C@H](C(N)=O)N(C(=O)c2ccccc2C(=O)c2ccccc2)C3)c1 (stereo partly specified)	-2.6
55	CCOC(=O)c1c2c(n(C)c1COC)C(=O)C(=O)c1ccc(Br)cc1-2	-50.8
56	CCn1cc(C(=O)O)c(=O)c2cc(F)c(N3CCN(S(=O)(=O)c4ccc(Br)cc4)CC3)cc21	-3.9
57	COc1ccc(S(=O)(=O)n2nc(C)c(S(=O)(=O)N3CCOCC3)c2C)cc1OC	-1.5
58	C/C=C\C=C/C(=O)Nc1cccc(C2=NOC3(C2)C[C@@H](C(N)=O)N(C(=O)c2ccccc2)C3)c1 (stereo partly specified)	27.7
59	Cc1cc(C(=O)N/N=C/c2cc(Br)ccc2OC(=O)c2ccc(Br)cc2)n[nH]1	-0.1
60	O=C(NCc1ccccc1Br)c1cccc2c1C(=O)c1ccc(N3CCOCC3)cc1S2(=O)=O	-2.2

# Continued.
entry	canonical_smiles	ALR H2O2 inh
61	CC1(OC(=O)c2cccs2)C(=O)C=C2C=C(c3ccsc3)OC=C2C1=O (stereo unspecified)	-15.9
62	CC(=O)Oc1ccc(C23CC4CC(CC(C4)C2)C3)cc1C(=O)O	4.8
63	CCCc1cc(=O)[nH]c(/N=C(/NC(=O)c2ccccc2)Nc2ccc3c(c2)OCCO3)n1	2.2
64	CCOC(=O)C1=C(C)NC(C)=C(C(=O)OCC)C1c1ccccc1/C=C/C(=O)OC(C)(C)C	-5.9
65	CCN(c1ccccc1)S(=O)(=O)c1ccc(C(=O)N(CCN(C)C)c2nc3c(F)cc(F)cc3s2)cc1	2.3
66	CCN(CC)C(=O)c1ccc2c(c1[N+](=O)[O-])C(=O)c1ccccc1C2=O	-15.4
67	COc1ccc2no[n+]([O-])c2c1	0.1
68	O=C(O)c1cc(O)c2c(c1)[C@@H]([C@H]1c3cc(C(=O)O)cc(O)c3C(=O)c3c(O[C@@H]4O[C@H](CO)[C@@H](O)[C@H](O)[C@H]4O)cccc31)c1cccc(O[C@@H]3O[C@H](CO)[C@@H](O)[C@H](O)[C@H]3O)c1C2=O	-29.5
69	CCCCC1=CC2=CC(=O)C(C)(OC(=O)c3ccc(Cl)nc3)C(=O)C2=CO1 (stereo unspecified)	-6.9
70	O=C1c2ccccc2C(=O)N1c1cccc(-c2csc(Nc3ccc4c(c3)OCO4)n2)c1	-1.7
71	O=[N+]([O-])C(=c1ccc2c(c1)N1C3=C(CCCC3)CC3CCCCC31N=2)[N+](=O)[O-] (stereo unspecified)	15.9
72	CC(C)n1c(SCC(=O)Nc2nncs2)nnc1-c1ccco1	2.6
73	Cc1ccc(-c2nc(SCC(=O)Nc3ccccc3OC(F)F)c3c(C)c(C(=O)O)sc3n2)cc1	7.9
74	Cc1ccc(CSCC2Nc3ccc(C(=O)N4CCN(c5cccc(C)c5)C(C)C4)cc3NC2=O)cc1 (stereo unspecified)	13.8
75	Cn1c(N)c(C(=O)COC(=O)c2cc(-c3ccccc3)nc3ccccc23)c(=O)n(C)c1=O	-23.5

# A portion of the library; count on the stated rates, not on these rows.
